Screens (PubChem)
Rango release inh: inhibition of RanGTP-driven Rango-importin beta dissociation | O95149+P62826 | Potency, µM (titrated, usually from 46.1 µM), inactives show top-dose activity change, negative = inhibition | Biochemical FRET Rango-importin beta, RanGTP-induced dissociation | 340,000 compounds, 0.071% hits; active means falling FRET ratio curve, often poorly fitted, with flat reads before Ran was added; inconclusive means other falling curves, or compound fluorescence or quenching; inactive means flat or rising ratio curve;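 note: potency is the fitted concentration of half-maximal effect; % of control where 0% means no effect; nearly all actives have a fitted effect of over 45% in size; -100% = wells without RanGTP and RCC1; the record marks most hits as doubtful in a second field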
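Compounds sat 5 min at room temperature with 0.1 uM Rango biosensor plus 0.25 uM importin beta, then FRET pre-read. RanGTP-RCC1 (0.6 uM Ran, 2mM GTP, 0.2 uM RCC1) added for 45 min, and the CFP/YFP post-read measured blocked complex dissociation.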
miR-21 reporter: raises the signal of a miR-21 reporter; HeLa miR-21 FLuc reporter, luciferase, 48 h; Potency, µM (series often up to 38.3 µM), for the others: top-dose reporter change, positive = more light; 340,000 tested, under 10 active; AID 2288; active = well fitted rising curve with a large enough effect; inconclusive = small, poorly fitted or top-dose-only effect; inactive = no such curve, though single readings can be large or run the other way;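 note: % of control where 0% means no effect; miR-21 action dims this reporter so a rising signal means less miR-21 action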
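HeLa miR-21-FLuc reporter line, endogenous miR-21; 2000 cells/well in DMEM/10% FBS; compound titration up to ~40uM final, 48 h, 37 degree Celsius; luciferase detection reagent, 15 min lysis, CCD luminescence.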
Rango complex inh: inhibitors of Rango-importin beta complex formation | Q14974 | Rango CFP/YFP FRET sensor + importin beta, 45 min | 340,000 compounds, 0.031% hits | Potency, µM (highest dose often 92.2 µM), inactives show at the highest dose inhibition of complex formation; active = rising FRET ratio curve, often small or poorly fitted; inconclusive = mostly compound fluorescence or quenching in the first reads; inactive = flat curves in all reads;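 note: potency is the fitted concentration of half-maximal effect; 0% = DMSO wells and 100% = buffer wells lacking importin beta; nearly all actives have a fitted effect of over 15% in size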
Target sequence (Q14974 whole entry, looked up): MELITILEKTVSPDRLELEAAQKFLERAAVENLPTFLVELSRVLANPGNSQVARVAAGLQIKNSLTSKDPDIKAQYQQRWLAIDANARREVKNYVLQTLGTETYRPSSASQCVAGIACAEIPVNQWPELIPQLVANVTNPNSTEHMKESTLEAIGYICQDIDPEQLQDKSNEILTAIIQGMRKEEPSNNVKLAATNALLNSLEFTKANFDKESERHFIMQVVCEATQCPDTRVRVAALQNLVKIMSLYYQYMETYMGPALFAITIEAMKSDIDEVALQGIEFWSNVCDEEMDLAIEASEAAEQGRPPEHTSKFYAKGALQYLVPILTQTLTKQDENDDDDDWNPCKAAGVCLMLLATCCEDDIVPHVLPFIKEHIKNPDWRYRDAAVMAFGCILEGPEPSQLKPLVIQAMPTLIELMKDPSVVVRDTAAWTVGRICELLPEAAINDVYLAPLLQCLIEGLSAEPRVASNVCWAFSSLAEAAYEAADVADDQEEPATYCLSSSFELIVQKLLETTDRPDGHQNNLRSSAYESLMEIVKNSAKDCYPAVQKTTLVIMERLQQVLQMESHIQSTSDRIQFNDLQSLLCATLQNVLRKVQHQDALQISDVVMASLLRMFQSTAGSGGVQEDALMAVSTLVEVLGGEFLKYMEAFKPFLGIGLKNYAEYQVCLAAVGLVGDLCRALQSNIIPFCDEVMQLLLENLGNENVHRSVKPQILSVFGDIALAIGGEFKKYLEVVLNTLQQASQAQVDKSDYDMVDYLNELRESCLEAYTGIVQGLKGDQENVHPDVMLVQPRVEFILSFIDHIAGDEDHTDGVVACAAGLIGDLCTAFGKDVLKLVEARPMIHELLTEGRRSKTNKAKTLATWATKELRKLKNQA
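FRET biosensor (snurportin 1 IBB flanked by EYFP and cerulean), 50 nM, with compound 5 min, then 0.125 microM importin beta in PBS, 1 mM DTT, 0.02% Tween-20, 0.1% BSA. CFP/YFP ratio read after 45 min at room temperature; pre-read flags interference.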
GLA inh pH 4.5: alpha-galactosidase A (human) inhibition, pH 4.5; purified enzyme, 4-MU-alpha-Gal fluorescence, pH 4.5; P06280; 230,000 tested, under 10 active; activity change, negative = inhibition, % at 105 µM; AID 1467; inconclusive = small, poorly fitted or top-dose-only inhibition, or a rising curve; inactive = flat fitted curve, though single readings scatter; no compound was filed as active;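 note: 0% = full activity with enzyme and -100% = basal without enzyme; dose as in the result columns while the protocol names 77 µM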
* hit, by the source's call; ? = inconclusive; / = no result given. These rows are one share of the data. The share of hits here may be higher or lower than overall.

SMILES	Rango release inh	miR-21 reporter	Rango complex inh	GLA inh pH 4.5
O=C(CNC(=O)c1ccco1)Nc1ccc(OC(F)F)cc1	6%	-2%	-3.1%	/
CCN(C(=O)COC(=O)CCC(=O)c1cccs1)C1CCCCC1	-12%	/	5.6%	/
CCN(CC)C(=O)CSc1nc2nc(C)cc(C)c2c(=O)[nH]1	-14%	4%	2.7%	2
O=C(NCCCn1ccnc1)C1CCN(S(=O)(=O)c2ccc(F)cc2)CC1	-7%	0%	-0.6%	/
COc1cc(CNCC2CCCO2)ccc1OCC(N)=O (stereo unspecified)	6%	4%	0.3%	2
C=C(C)COc1ccc2c(C)c(CC(=O)OC)c(=O)oc2c1C	-5%	-36%	-0.7%	0
Cc1cc(C)cc(NC(=O)c2ccc(CN3CCc4ccccc4C3)cc2)c1	0%	-3%	2.4%	/
CC(C)=CC1C(C(=O)Nc2ccc(Br)cn2)C1(C)C (stereo unspecified)	-5%	1%	1.7%	-2
CCOc1cccc2sc(N(CCN(C)C)C(=O)c3cc4ccccc4cc3OC)nc12	-7%	21%	1.0%	/
O=c1[nH]c(SCCOc2ccccc2F)nc2ccccc12	1%	-28%	-0.1%	2
CC(C)NC(=O)CN(C(=O)CCC(=O)Nc1nccs1)c1ccc2c(c1)OCO2	-1%	-4%	-0.2%	/
Cc1ccc2c(C)nc(SC(C(=O)c3ccccc3)c3ccccc3)nc2c1 (stereo unspecified)	1%	0%	7.4%	5
Cc1n[nH]c(C)c1-c1nc2ccccc2[nH]1	1%	-2%	1.2%	4
CCOC(=O)C1=C(C)N(CCCC(=O)O)C(=O)NC1c1ccc(OC)cc1 (stereo unspecified)	-1%	3%	-1.0%	-10
COc1ccc(CCNC(=O)CSc2cn(Cc3ccccc3)c3ccccc23)cc1OC	-1%	-5%	-3.7%	8
CCOc1ccc(CCNC(=O)c2cccc(S(=O)(=O)N3CCCCC3)c2)cc1OCC	-6%	/	-3.0%	/
C/C(=N\O)C(C)NC(=O)c1ccccc1 (stereo unspecified)	6%	-1%	0.7%	1
Cc1ccc(C(=O)N/N=C(/CC(=O)c2cccs2)C(F)(F)F)cc1	-23%	-4%	8.3%	-3
O=S(=O)(NC(CO)Cc1ccccc1)c1cc(Cl)ccc1F (stereo unspecified)	-16%	/	3.9%	/
Cc1ccccc1-n1nnnc1SCC(=O)Nc1ccc(N2CCN(C)CC2)cc1	6%	2%	-0.9%	/
COc1ccc(C2CC(=O)c3cnn(-c4nc(C)cc(C)n4)c3C2)cc1 (stereo unspecified)	6%	15%	-0.7%	-6
Cc1c(CCO)c(=O)n(-c2ccccc2)n1S(=O)(=O)c1c(Cl)cc(Cl)cc1Cl	22%	3%	4.4%	0
O=C(O)c1cc2c(cc1NC(=O)c1c(F)cccc1F)OCCCO2	-3%	-8%	-3.7%	/
CCOc1ccccc1NC(=O)CCC(=O)O	2%	0%	0.6%	-1
O=C(CSc1nnc(-c2ccncc2)n1-c1ccc(F)cc1)NC(=O)NCc1ccco1	-12%	-7%	-5.0%	-7
CN(CCCNC(=O)Cn1cc2c(n1)CCCC2)C1CCCCC1	2%	0%	0.9%	-2
O=C(CCCN1C(=O)S/C(=C/c2ccccc2)C1=S)Nc1ccc(C(=O)O)cc1	1%	11%	1.8%	/
O=C(NCCc1ccccc1)c1ccc(-c2ccccc2C(F)(F)F)o1	-12%	-23%	-1.0%	-9
CCC(OC(=O)c1nsc(Cl)c1Cl)C(=O)NCCOC (stereo unspecified)	-10%	-1%	0.8%	-8
O=C(CSc1nnc(Cc2ccccc2)n1-c1ccccc1)N1CCOCC1	7%	-6%	-3.9%	-8
CC(C)N(Cc1ccccc1)S(=O)(=O)N(C)C	18%	-10%	2.9%	0
ONC(=Nc1ccccc1)c1ccc(Cl)cc1	2%	2%	0.4%	1
Cc1noc(C)c1C(=O)Nc1nc(-c2ccc([N+](=O)[O-])cc2)cs1	-2%	16%	-3.0%	/
COC(=O)[C@]1(C)N[C@H](c2ccc(-c3cccc(Cl)c3)cc2)[C@@H]2C(=O)N(C)C(=O)[C@@H]21	11%	/	2.6%	/
Cc1cc(Nc2ccc(C)c(F)c2)n2ncnc2n1	2%	-13%	0.3%	-6
CCC(C)(C)n1nnnc1CN1CCSCC1	-5%	-2%	1.8%	0
COC(=O)C1=C(C)N(c2ccc(C)c(C)c2)/C(=C/c2ccc(O)cc2)C1=O	10%	-2%	0.0%	0
Clc1ccc(-n2nnc(-c3cccnc3)n2)cc1Cl	2%	-57%	-3.1%	8
CS(=O)(=O)N1CCN(CC(=O)NC2CCCCC2)CC1	3%	-1%	0.4%	-9
CSc1ncc(Cl)c(C(=O)Nc2cccnc2)n1	2%	-6%	-3.2%	/
Cc1cc(NC(=O)c2sc(Nc3ccc(F)c(Cl)c3)nc2N)no1	7%	-20%	-8.8%	4
COc1ccc(Cc2nnc(NC(=O)C3CCCO3)s2)cc1OC (stereo unspecified)	6%	-1%	-0.6%	4
COc1ccc2c(-c3ccc(OCCN4CCCCC4)cc3)c(-c3ccccc3OC)sc2c1	-9%	/	1.9%	/
CCSc1ncc(Cl)c(C(=O)Nc2ccc(S(=O)(=O)Nc3onc(C)c3C)cc2)n1	2%	-13%	-1.4%	-3
COc1ccc(C(=O)N2CCN(Cc3ccccc3C(F)(F)F)CC2)cc1	2%	-2%	-0.9%	/
Cc1nc(C)c(-c2csc(Nc3ccc(F)cc3)n2)s1	-1%	-15%	-0.5%	-4
COc1ccc(/C=C(/NC(=O)c2ccccc2)C(=O)Nc2cccc(C(=O)O)c2)cc1	17%	2%	-4.9%	/
O=C(O)c1ccc(/C=N/NC(=S)NC2CCCCC2)cc1	-23%	-47%	3.0%	-2
O=C(Oc1cc(=O)oc2ccccc12)c1ccco1	8%	-14%	-1.4%	0
C=CCn1c(COc2ccc(OC)cc2)nc2ccccc21	6%	-50%	3.5%	/
(list continues)
SMILES	Rango release inh	miR-21 reporter	Rango complex inh	GLA inh pH 4.5
Cc1ccc(C(=O)NNc2c3ccccc3nc3ccccc23)cc1	-18%	-34%	?	29
CCOc1cc(/C=N/NC(=O)c2cccnc2)cc(Br)c1OCC(N)=O	-7%	3%	-1.1%	1
O=C(O)CSc1nnc(COc2cccc3ccccc23)n1Cc1ccccc1	1%	0%	6.1%	-4
CCOc1ccc2[nH]c(C(=O)N/N=C/c3cccc(OC)c3OC)cc2c1	-18%	18%	2.2%	/
COC(=O)NCCOc1cc(C)ccc1C	-6%	-7%	-2.3%	-11
CC(NC(=O)COC(=O)C12CC3CC(CC(O)(C3)C1)C2)c1ccccc1 (stereo unspecified)	1%	/	-0.4%	/
CS(=O)(=O)c1ccc(NC(=O)c2ccc3c(c2)S(=O)(=O)N=C2CCCCCN23)cc1	2%	/	0.4%	/
CC(C)CC1Nc2ccc(C(=O)NCCCN3CCCCC3C)cc2NC1=O (stereo unspecified)	-11%	-12%	-2.6%	/
Cc1ccc(S(=O)(=O)N/N=C/c2ccccc2O)cc1	-4%	-44%	1.0%	/
CCCCn1c(N)c(N(CC(C)C)C(=O)c2ccc(OC)c(S(=O)(=O)N3CCOCC3)c2)c(=O)[nH]c1=O	5%	/	-1.3%	/
O=C(CN1CCN(C(=O)c2ccco2)CC1)NCc1ccc(Cl)cc1	-1%	-1%	4.5%	/
CCOC(=O)C1=C(c2ccccc2)Nc2ncnn2C1c1cccc(O)c1 (stereo unspecified)	-20%	1%	-0.4%	-8
Cc1ccc(NC(=O)COC(=O)CNC(=O)c2ccc(Br)cc2)c(C)c1	-8%	0%	-0.8%	15
CC(C)c1c(O)nc(SCc2ccc(F)cc2)[nH]c1=O	0%	6%	1.3%	/
CC(=O)C1=C(C)NC2(O)c3ccccc3C(=O)C12O (stereo unspecified)	0%	-6%	-1.1%	-1
CCOC(=O)N1CCN(C(=O)C2CCN(S(=O)(=O)c3ccc(C)cc3)CC2)CC1	-5%	-3%	0.0%	-2
O=C(COC(=O)c1ccncc1)c1ccccc1	16%	-2%	-3.3%	-2
COc1ccc(CCNC(=O)c2cccs2)cc1OC	0%	0%	13%	-8
O=C(C1=C[C@H](c2ccccc2)C[C@H](OCc2ccc(CO)cc2)O1)N1CCOCC1	2%	5%	-0.7%	-8
COCCn1c(C)cc(C(=O)COc2ncnc3ccc(Br)cc23)c1C	0%	-8%	2.1%	1
COc1ccc(N(CC(=O)Nc2ccccc2OC)S(=O)(=O)c2ccc(NC(C)=O)cc2)cc1	-7%	17%	-2.5%	/
COC(=O)C1CCN(Cc2c(C(=O)N3C[C@@H](C)O[C@@H](C)C3)nc3ccc(Cl)cn23)CC1	-3%	-5%	0.4%	/
CN(CC(=O)NC(=O)NC1CCCCC1)c1ccccc1	5%	/	-3.5%	/
O=C(COC(=O)CSc1ccc2ccccc2c1)NC1CC1	12%	-4%	-0.5%	-2
Cc1ccc(NC(=S)NCc2ccccc2)cc1C	1%	/	3.9%	/
CC(=O)Nc1ccc(/C=N/NC(=O)c2cccc(S(=O)(=O)N3CCOCC3)c2)cc1	-2%	-5%	-2.9%	-17
COc1cc(/C=C/C(=O)O)cc(S(=O)(=O)Nc2ccccc2Cl)c1OC	1%	-1%	0.2%	-1
CC(C)c1cc(NC(=O)c2ccccc2)cc(C(C)C)c1O	0%	18%	0.5%	0
Cc1cccc(-c2nnc(-c3ccc(N)cc3)o2)c1	-1%	-17%	-2.5%	-2
CCOc1ccc(S(=O)(=O)N2CCCC(C(=O)NCc3cccnc3)C2)cc1Cl (stereo unspecified)	-12%	2%	-0.4%	/

Filtered by structure: the entries above with two or more sulfur atoms.
SMILES	Rango release inh	miR-21 reporter	Rango complex inh	GLA inh pH 4.5
O=C(CCCN1C(=O)S/C(=C/c2ccccc2)C1=S)Nc1ccc(C(=O)O)cc1	1%	11%	1.8%	/
CCSc1ncc(Cl)c(C(=O)Nc2ccc(S(=O)(=O)Nc3onc(C)c3C)cc2)n1	2%	-13%	-1.4%	-3
Cc1nc(C)c(-c2csc(Nc3ccc(F)cc3)n2)s1	-1%	-15%	-0.5%	-4
CS(=O)(=O)c1ccc(NC(=O)c2ccc3c(c2)S(=O)(=O)N=C2CCCCCN23)cc1	2%	/	0.4%	/

Next section
SMILES	Rango release inh	miR-21 reporter	Rango complex inh	GLA inh pH 4.5
N#Cc1c(/N=C/C=C/c2ccccc2)sc2c1CCCC2	-2%	-8%	-3.2%	?
CCc1nc2ccccc2n1CC(=O)N1CCN(Cc2ccccc2)CC1	2%	1%	1.9%	10
COC(=O)c1noc(-c2ccc(C)cc2)n1	-15%	6%	-2.1%	2
Cc1cc(C(=O)Nc2cc(C)on2)on1	-6%	1%	-0.1%	/
CC(C)n1c(NCCc2ccccc2)nc2c1c(=O)n(C)c(=O)n2C	11%	14%	-3.3%	3
CCn1c(CNc2ccc(C)cc2)nnc1SCC(N)=O	20%	-1%	-1.2%	-5
CN(C)c1ccc(C(C(=O)NCc2ccccc2)N(Cc2ccco2)C(=O)c2snc(C(N)=O)c2N)cc1 (stereo unspecified)	4%	8%	2.1%	/
CN(C)CCNC(=O)c1c(CSc2ccc(Cl)cc2)noc1C(=O)NCc1ccccc1	1%	/	-4.4%	/
Cc1cc(=O)[nH]c(SCC(=O)O)c1C#N	7%	-3%	?	-2
O=c1cc(N2CCc3ccccc3C2)[nH]c(=O)n1-c1ccc(Br)cc1	-2%	1%	0.1%	-3
COc1cc2c(cc1OC)-c1cc(Nc3ccccc3C)nc(=O)n1CC2	-6%	-32%	-1.3%	/
CCCOc1ccc(CC(=O)N/N=C\c2ccc(F)cc2)cc1	12%	5%	0.4%	/
CC(CN1CCOCC1)OC(=O)c1ccc(Cl)cc1Cl (stereo unspecified)	11%	-1%	1.2%	/
OCC1(c2cc(C(F)(F)F)n[nH]2)CCCCC1	5%	6%	-0.7%	6
O=C(CN1C2=NCCCN2c2ccccc21)c1cccc(Br)c1	11%	4%	-0.8%	-2
CCOc1ccc2[nH]c(SCC(=O)OC)c([N+](=O)[O-])c2c1	?	-1%	?	-5
CCc1ccc(NC(=O)N(CCN2CCOCC2)Cc2ccc3c(c2)CCCN3CC)cc1	4%	-25%	-1.7%	-3
CCOC(=O)CNC(=O)Cn1cnc2c(nnn2-c2ccccc2)c1=O	17%	3%	-1.9%	/
